# Menin MLL FP FL = displaces fluorescein MLL peptide from human menin. AID 1766. Fluorescence polarization, fluorescein-MLL peptide displacement from menin. 290,000 tested, under 10 active. FP activity change, % at 61.4 µM; inconclusive = falling polarisation curve, or a change in total fluorescence; inactive = total fluorescence flat and polarisation flat or rising; no compound was filed as active; the % refers to the polarisation; negative = inhibition;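 further: % of control where 0% means no effect; inhibitors lower the polarisation; unlabelled MLL peptide was the positive control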
# TRPML1 blocker = blocks the human TRPML1 channel. 0.02% of 390,000 active. Q9GZU1. TRPML1-inducible cells, Ca2+ dye fluorescence, FDSS; active compounds read low; inhibition of EC80 agonist-evoked calcium signal. activity change, negative = inhibition, % (test concentration not listed); in the data active means activity change below about -50%; inconclusive means about -30% to -50%; inactive means above about -30%;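 further: stimulus is agonist 54-4 at its EC80 concentration; on the % scale 0 is the no-effect control and ±100 the full control effect; compound concentration not given in the record; the text of the record puts the active cut at -80%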
# Target sequence (Q9GZU1 whole entry, looked up): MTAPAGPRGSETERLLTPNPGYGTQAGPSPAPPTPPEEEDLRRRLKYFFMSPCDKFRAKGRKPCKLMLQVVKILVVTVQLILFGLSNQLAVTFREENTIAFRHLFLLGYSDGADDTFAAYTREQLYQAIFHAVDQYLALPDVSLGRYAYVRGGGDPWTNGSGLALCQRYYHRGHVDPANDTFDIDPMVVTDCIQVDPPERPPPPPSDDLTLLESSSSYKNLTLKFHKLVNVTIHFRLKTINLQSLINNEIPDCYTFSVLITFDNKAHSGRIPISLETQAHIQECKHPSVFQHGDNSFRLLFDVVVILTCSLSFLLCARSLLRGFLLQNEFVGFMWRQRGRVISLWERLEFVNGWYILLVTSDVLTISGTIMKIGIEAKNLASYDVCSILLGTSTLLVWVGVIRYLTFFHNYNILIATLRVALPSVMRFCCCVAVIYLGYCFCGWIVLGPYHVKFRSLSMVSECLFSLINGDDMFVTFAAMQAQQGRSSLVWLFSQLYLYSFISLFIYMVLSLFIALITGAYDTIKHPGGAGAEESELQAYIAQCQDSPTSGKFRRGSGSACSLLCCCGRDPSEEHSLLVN
#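 TRPML1-DL cells, Tet-induced overnight (~16 h, 37 °C) at 1,500 cells/well, were loaded with Ca8 no-wash dye plus quencher for 45-90 min at room temperature. Compounds were pinned during FDSS kinetic reading; agonist 54-4 at EC80 (4 uM final) then added.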
# gsp antagonist = antagonists of gsp mutant (McCune-Albright syndrome). gsp-mutant cells, cAMP HTRF, 30 min; control for the full effect not named in the record. Potency, µM (titrated, usually from 76.9 µM), for the others: top-dose activity change, negative = inhibition, usual class: inhibitors. 0.4% of 340,000 active. AID 624288; active = falling curve of any shape with a large fitted effect; inconclusive = falling curve, mostly with a smaller effect; inactive = flat or rising curve; cell line not stated here;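 further: intracellular cAMP measured with PDE inhibitor Ro 20-1724 present during compound exposure; potency means the concentration at half of the fitted maximal effect; on the % scale 0 is the no-effect control and ±100 the full control effect; nearly all actives have a fitted effect of over 65% in size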
#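 HTRF cAMP measurement after 30 min RT detection following 30 min, 37C compound treatment alongside […] (added as 300 uM solution) in G418-selected cells seeded at 2000/well and grown 16–24 h.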
# gsp agonist = activates gsp, the McCune-Albright syndrome mutation; gsp mutant cells, cAMP HTRF, 30 min; control for the full effect not named in the record; Potency, µM (highest dose often 76.9 µM), without a hit: at the top dose activation (cAMP increase), usual class: activators; 0.13% of 340,000 active; active = well fitted activation curve with a large enough effect; inconclusive = small, poorly fitted or top-dose-only effect, or another doubt; inactive = no such curve, though single readings can be large or run the other way; cell line not stated here;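 further: phosphodiesterase inhibitor Ro 20-1724 added with compounds to block cAMP breakdown; potency means the concentration at half of the fitted maximal effect; nearly all actives have a fitted effect of over 60% in size; about a fifth of the inactives were tested at one dose only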
#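 Cells in DMEM/10% FBS with G418 were pretreated with compounds in DMSO plus […] (300 uM stock) for 30 min at 37C. cAMP was measured by HTRF (cAMP-d2 plus anti-cAMP antibody-K) after 30 min at room temperature.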
# ClpP mod = qHTS Assay for Activators of ClpP. ATP-dependent Clp protease proteolytic subunit (Bacillus subtilis (strain 168)), P80244. purified B. subtilis ClpP, FRET peptide cleavage, 20 min. Potency, µM (top dose mostly 57.5 µM), for the others: at the highest dose activity change, negative = active. 1.9% of 340,000 active. AID 651965, 2013; active = well fitted falling curve with a large enough effect; inconclusive = small, poorly fitted or top-dose-only effect; inactive = no such curve, though single readings can be large or run the other way; further: potency means the concentration at half of the fitted maximal effect; the source files actives as falling curves though it sought activators and does not explain the sign; nearly all actives have a fitted effect of over 65% in size; many hits overshoot -100%
# Target sequence (P80244 whole entry, looked up): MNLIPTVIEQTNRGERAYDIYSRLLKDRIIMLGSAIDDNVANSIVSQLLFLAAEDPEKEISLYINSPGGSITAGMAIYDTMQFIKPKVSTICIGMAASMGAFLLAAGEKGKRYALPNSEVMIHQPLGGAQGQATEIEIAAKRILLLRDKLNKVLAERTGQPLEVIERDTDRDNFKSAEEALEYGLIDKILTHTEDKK
#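 Buffer: 100 mM Tris/HCl pH8, 100 mM KCl, 0.05% low protease BSA, 2.5% glycerol, 0.01% Tween-20. ClpP 10 microg/mL final; 20 min RT; delta FRET normalized to ADEP and DMSO controls.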
# Sfp inh = blocks B. subtilis Sfp PPTase activity | Q9F4F7 | Biochemical Sfp PPTase activity, qHTS | Potency, µM, for inactives: max response, negative = inhibition, most hits filed as inhibitors | 3.5% of 310,000 active | AID 1490; active means well fitted inhibition curve with a large enough effect; inconclusive means small, poorly fitted or top-dose-only effect, or another doubt; inactive means no such curve, though single readings can be large or run the other way;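 further: the enzyme is Sfp with the accession as filed and its product quenches rhodamine fluorescence; potency means the concentration at half of the fitted maximal effect; 0% = enzyme reaction without inhibitor and -100% = no enzyme wells; top concentration of the series not given in the record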
#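 Step 1, compound plus 15 nM Sfp-PPTase, 15 min, room temperature. Step 2, add rhodamine-CoA (5 uM) and BHQ-2-YbbR (12.5 uM). Step 3, read 525/598 nm fluorescence at 0 and 30 min.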
# TRPV1 PAM = human TRPV1 potentiation | Q8NER1 | TRPV1-expressing cells, Fluo-8 calcium influx, capsaicin EC20 potentiation; host cell line not named in the record; control for the full effect not named in the record | potentiation, % at 8.33 µM | 0.02% of 320,000 active | AID 540277; active means potentiation above 80%; inconclusive means 30% to 80%; inactive means below 30%; further: 0% is about no effect
#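 TRPV1-expressing cells were cultured overnight at 35.5C and loaded with Fluo-8 calcium dye for 40 to 90 min at room temperature. After a 10 s baseline, compound was added and calcium influx was read kinetically for 3 min (ex 480/em 520 nm).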
# * marks the source's active call; other numbers are inactive results; ? = inconclusive; . = not tested or not shown; [ ] = remark or other dose.
structure,Menin MLL FP FL,TRPML1 blocker,gsp antagonist,gsp agonist,ClpP mod,Sfp inh,TRPV1 PAM
CS(=O)(=O)N1N=C(c2cccs2)CC1c1ccccc1F (stereo not given),4.0,-2,2%,5%,-1.7%,15%,-7
CCCCn1nc2cc(C(=O)NCc3ccco3)ccc2c1OCC,8.4,-3,12%,-5%,4.2%,5%,9
CCOC(=O)c1cn[nH]c1NC(=S)Nc1ccc(OC)cc1,5.3,7,1%,-18%,.,-3%,5
CCc1c(C)c(C#N)c2nc3ccccc3n2c1NCCCN(C)C,.,-11,.,?,-12%,.,.
O=C(NC1CC1)c1cccc(NC(=O)C2CCCCC2)c1,.,-1,8%,.,-1.2%,.,.
Cc1ccc(-c2nnc(SCC(=O)N/N=C/c3ccccc3C(=O)O)n2C2CCCCC2)cc1,.,-4,-11%,-9%,1.5%,20%,9
CCC(C)Cn1c(C(C)C)nc2ccccc21 (stereo not given),0.0,2,5%,-10%,.,?,-20
O=C(CN1CC(=O)Oc2ccccc21)OCC(=O)c1ccc(F)cc1,0.6,14,-2%,-8%[15.4 µM],.,50µM*,-3
Cn1c(SCC(=O)Nc2cccnc2)nnc1-c1ccccc1F,1.4,6,.,16%[15.4 µM],.,2%,1
O=C(CSc1ccc2nnc(-c3ccccn3)n2n1)Nc1ccc(F)cc1F,4.6,-3,6%,?,-1.6%,6%,5
C=CCn1c(SCC(=O)Nc2ccccc2)nnc1-c1cccc(S(=O)(=O)N2CCOCC2)c1,2.1,-5,-7%,-13%,1.0%,13%,8
COc1ccc(-n2ncc(C(C)NS(=O)(=O)c3cc(C)sc3C)c2C)cc1 (stereo not given),.,-26,.,?,-0.2%,.,.
CCC(NC(=S)NCc1ccccc1)C(=O)O (stereo not given),-4.5,6,6%,?,0.9%,-4%,-10
Cc1n[nH]c(C)c1S(=O)(=O)N1CCCC(C(=O)NC2CCCc3ccccc32)C1 (stereo not given),-1.1,27,-12%,0%,-1.1%,3%,13
CCOc1c2ccc(C(=O)NCc3ccc4c(c3)OCO4)cc2nn1C,0.3,9,0%,3%,4.5%,8%,9
COc1ccc(Br)cc1S(=O)(=O)n1ccnc1C,-1.7,13,5%,-20%,-2.7%,0%,1
COCCCNC(=O)Cn1cnc2c(NCc3ccccc3)ncnc21,.,3,12%,.,0.8%,.,.
O=[N+]([O-])c1cccc(-n2nncc2-c2ccccc2)c1,-7.2,-1,-3%,-31%[inhibitor],.,29%,24
O=C(Nc1cnn(Cc2ccc(F)cc2)c1)c1cc(-c2cccs2)on1,-2.3,-7,1%,-25%,?,-6%,17
O=C(O)CN1C(=O)C=CC1=O,.,2,.,-34%[inhibitor],0.0%,.,.
CCN(CC)C(=O)Cn1cnc2sc(C(=O)Nc3cc(OC)c(OC)c(OC)c3)c(C)c2c1=O,1.9,3,-1%,10%,1.1%,20%,-8
O=C(NCc1ccncc1)Nc1cccc([N+](=O)[O-])c1,5.8,4,5%,8%,0.6%,13%,-6
Nc1cn(C2OC(CO)C(O)C2O)c(=O)[nH]c1=O (stereo not given),-4.9,31,-2%,1%,-0.7%,-1%,?
CC(=O)Oc1cccc(C(=O)Nc2ccc(NC(=O)c3cccs3)cc2)c1,4.6,-13,4%,-2%[15.4 µM],-5.4%,6%,-1
O=C(c1cc(F)c(F)cc1Cl)N1CCCCC1,3.2,24,-9%[15.4 µM],-28%,-1.5%,14%,9
O=C(COC(=O)/C=C/c1cccc(F)c1)Nc1ccccc1,-0.6,31,11%,-15%,.,20%,-3
O=C(c1ccc(Cl)c(Cl)c1)N1CCC(O)(CN2CCOCC2)CC1,-0.3,7,-3%,-10%,-0.6%,19%,2
CCCCn1c(=N)n(CC(O)COc2cccc(C)c2)c2ccccc21 (stereo not given),-0.1,14,8%,-26%,2.2%,9%,8
c1ccc(Cn2ncc3c2ncn2c(-c4ccncc4)nnc32)cc1,-2.2,.,.,.,.,7%,-5
Cn1c(=O)n(Cc2ccccc2)c(=O)c2c1nc1n2CCS1,1.8,-15,3%,27%,-1.8%,6%,4
Cc1occc1C(=O)NCCCc1ccccc1,6.0,35,-2%,1%,-5.7%,10%,-23
Cc1cccc(-c2n[nH]c(=S)n2/N=C/c2ccco2)c1,3.1,-3,-20%,-50%[inhibitor],0.2%,-25%,14
CC(C)[C@H](NC(=O)[C@@H]1Cc2c([nH]c3ccccc23)C2c3ccccc3C(=O)N21)C(=O)NCC1CCCO1 (stereo not given in full),1.6,.,-11%,.,-21%,1%,-11
Cc1ccccc1CC1(CO)CCCN(C(=O)c2ccc(F)cc2)C1 (stereo not given),5.5,-11,6%,8%,1.6%,7%,3
Cc1nc2ccc(C(=O)N(C)CC3CCCN(CCc4ccc(Cl)cc4)C3)cc2[nH]1 (stereo not given),-3.6,6,5%,18%,0.5%,19%,-3
CCCOc1ccc(C(=O)CCC(=O)OCC(=O)Nc2ccc(Oc3ccccc3)cc2)cc1,2.7,.,.,.,.,12%,-5
COc1cccc(CNc2ccc(F)c(Cl)c2)c1OC,2.1,9,?,-45%[inhibitor],-1.3%,4%,4
O=C(NC(Cc1ccccc1)C(=O)O)/C(=C/c1cccc(Br)c1)NC(=O)c1ccco1 (stereo not given),-9.7,12,-13%,-6%[15.4 µM],.,19%,26
COc1cc(C(=O)NCCc2cn3ccc(C)cc3n2)cc(OC)c1OC,2.6,0,0%,-65%[inhibitor],?,11%,11
O=C(NCc1ccccc1)C(c1ccccc1)N(C(=O)c1csnn1)C1CC1 (stereo not given),2.8,0,-3%,-3%[15.4 µM],.,10%,4
O=C(c1ccccc1-c1ccccc1)N1CCN(c2ccccn2)CC1,1.4,-6,6%,38%,?,12%,-8
CC(OC(=O)CN1C(=O)NC2(CCCC2)C1=O)C(=O)c1ccc(C(C)(C)C)cc1 (stereo not given),.,-10,-22%,10%,-1.0%,.,5
O=C(Cc1ccc(Cl)c(Cl)c1)Nc1cccnc1,0.0,-4,-3%,-8%[15.4 µM],.,5%,-12
CC(C)CC1C(=O)N(Cc2cn(CCC3OCCCO3)nn2)CCS(=O)(=O)N1Cc1ccc(-c2ccc(Cl)nc2)cc1 (stereo not given),.,1,.,-1%,-4.7%,.,.
O=C(CSc1nnc(NC(=O)c2ccc(F)cc2)s1)NCc1ccco1,.,-7,2%,-18%[15.4 µM],-6.4%,-10%,9
CN1CCN(/N=C/c2ccc(N(C)c3ccccc3)cc2)CC1,-0.8,-4,7%,2%[15.4 µM],.,2%,2
O=C(OCC(=O)c1c[nH]c2ccccc12)c1ccc(F)c(S(=O)(=O)N2CCOCC2)c1,.,-9,.,-5%,-1.1%,.,.
COc1ccc(N(C(=O)c2ccco2)C(C(=O)NC2CCCC2)c2ccccc2)cc1 (stereo not given),1.1,8,-12%,-4%[15.4 µM],.,12%,3
CN1CCN(C(CNS(=O)(=O)c2cccs2)c2cccnc2)CC1 (stereo not given),-6.9,-8,-4%,-75%[inhibitor],-5.9%,11%,2
O=C(CN1C2CCCC1CC(NC(=O)C1CCCCC1)C2)Nc1ccccc1C(F)(F)F (stereo not given),0.4,-3,?,-8%[15.4 µM],.,6%,-16
O=[N+]([O-])c1cccc(-c2noc(COc3ccccc3)n2)c1,1.4,-9,8%,-26%,.,15%,?
CS(=O)(=O)CCSc1ncccc1C(=O)NCc1cccs1,1.4,4,-1%,-3%,-0.1%,23%,20
O=C(O)c1ccc(SCc2cnc(Cl)s2)cc1,0.3,-2,-9%,11%,0.1%,8%,-4
Cc1cccn2c(=O)nc(SCC(=O)N3CCC(Cc4ccccc4)CC3)nc12,.,-7,-9%,11%,-18%,.,7
Cc1ccc2c(c1C)-c1c(ccc(C)c1C)C(=O)C2=O,.,-9,18%,9%,0.9%,.,.
Cc1ccccc1N1Cc2ccccc2C1,-0.3,22,-6%,?,0.3%,-5%,-1
O=C1CSC(c2ccccc2)N1c1ccc([N+](=O)[O-])cc1 (stereo not given),-1.5,2,-10%,-2%[15.4 µM],?,5%,8
CC(C)N(C(=S)Nc1ccc(S(=O)(=O)N2CCOCC2)cc1)c1ccccc1,.,8,-4%,-14%,.,.,.
CCOC(=O)c1csc(NC(=O)CSc2nnnn2-c2ccc3c(c2)OCCO3)n1,3.2,0,-7%,-6%,-21%,9%,15
COc1ccc(CN2CCC(n3nccc3NC(=O)CCOc3ccccc3)CC2)cc1C,-0.7,5,-12%,10%[15.4 µM],0.3%,2%,3

# Other structures follow:
structure,Menin MLL FP FL,TRPML1 blocker,gsp antagonist,gsp agonist,ClpP mod,Sfp inh,TRPV1 PAM
O=C(Nc1ccccc1N1CCOCC1)C1CCN(S(=O)(=O)c2cccc(C(F)(F)F)c2)CC1,2.7,-5,-9%,-4%,-17%,12%,-2
O=C(c1ccc(Br)o1)N1CC=C(c2ccccc2)CC1,.,1,-13%,?,-1.5%,.,.
CC(=O)c1ccc(N(CC(=O)NC2CCCCC2)C(=O)CNC(=O)c2ccco2)cc1,.,10,3%,20%,.,4%,6
COc1cccc(C(=O)Nc2sc3c(c2C(=O)O)CCCC3)c1,8.0,11,?,-9%[15.4 µM],0.0%,-1%,8
CCCn1nc(C(=O)OCC(=O)c2ccccc2)c2ccccc2c1=O,-1.6,4,-18%,-10%[15.4 µM],.,7%,-14
COCCNC(=S)N1CCN(c2cccc(C)c2C)CC1,0.2,-8,1%,-11%[15.4 µM],.,2%,-5
CCN1CCc2c(sc(NC(=O)c3cc4ccccc4cc3OC)c2C(N)=O)C1,.,-1,1%,?,6.4%,?,9
CC1CCCC(NC(=O)Cn2cc(Br)ccc2=O)C1C (stereo not given),.,-22,11%,25%,-2.2%,.,.
COc1ccc(-n2ncc3c2CC(C)(C)CC3NC(=O)c2ccnn2C)cc1 (stereo not given),-1.6,7,-17%,0%,2.4%,19%,-6
